High-throughput results from PubChem.
Ab BasE inh = inhibitors of Acinetobacter baumannii siderophore enzyme BasE | purified BasE, fluorescence polarization binding displacement | inhibition, % (no concentration beside the values) | actives 0.1% (n = 84,000) | AID 485350;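 active means both replicates above 25% with normal brightness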;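 further: 0% = negative plate control signal and 100% = positive plate control signal; stock transfer was 100 nL into about 30 µL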
LANA-nucl inh = inhibitors of KSHV LANA binding to nucleosomes. FITC-LANA1-23 / chicken nucleosome fluorescence polarization; stronger effect = lower value. AID 720717. z-score (concentration not given with the values). actives 0.3% (n = 51,000);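 active means both repeat wells score below -2 in polarization z-score versus plate sample wells, excluding overly bright wells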;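 further: 100 nL library stock added to about 30 µL; numbers are from one replicate; some results filed as inactive read as strong as hits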
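System – purified chicken nucleosomes with FITC-labelled LANA N-terminal peptide (1-23) · Amount – 240 nM purified chicken nucleosomes (480 nM peptide binding sites), final · Also added – 50 nM FITC-LANA1-23 probe · Medium – TEN-BT buffer, pH 7.5 · Incubation – compound with peptide–nucleosome mix 10–45 min at room temperature · Detection – fluorescence polarization, ex 480 nm, em 535 nm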
The depositor's hits bear a star; · = no result given.

SMILES | Ab BasE inh | LANA-nucl inh
CCCn1c(=O)n(C)c(=O)c2c(SCC(=O)N3CCCC3=O)nc(C(C)C)nc21 | 1.7 | ·
COc1ccc(S(=O)(=O)NC(C)C)cc1-n1cnnn1 | -1.0 | -0.73
C/C(=C/C(=O)C(F)(F)C(F)F)Nc1ccccc1 | 3.5 | 0.67
Cc1onc(-c2ccccc2Cl)c1C(=O)N(C)C1CCCCC1 | 0.5 | -0.57
CC1(C)Cc2ccccc2-c2nc(-c3ccccc3)n(N)c(=O)c21 | -0.5 | 0.35
Cc1c(NC(=S)NC(=O)c2ccccc2)c(=O)n(-c2ccccc2)n1C | -1.2 | -0.41
CN(C)C(=O)CCSc1nc2cc(Cl)ccc2o1 | -0.9 | -0.52
Cc1ccccc1NC(=O)N1CCN(Cc2ccccc2)CC1 | 1.1 | -1.3
CCOC(=O)c1c(C)noc1-c1csc(-c2cccc(C(F)(F)F)c2)n1 | 0.3 | -1.5
CC(Oc1ccc(Cl)cc1Cl)C(=O)N(C)C (stereo not given) | 2.6 | -0.11
O=C(CCc1ccccc1)Nc1ccc2[nH]c(=O)oc2c1 | 1.5 | -0.3
CCN(CC)C(=O)N1CCC(C(=O)OC)CC1 | -1.4 | -0.5
CCCCNC(=O)c1cc(-c2cccs2)on1 | 0.0 | -0.99
CC(C)(C)c1nc2scc(-c3ccc(Cl)cc3)n2n1 | -2.1 | ·
N#C/C(=C\c1ccc(-c2cccc(Cl)c2)o1)C(N)=O | -3.6 | -0.34
CC(C)C(=O)c1cn(CC(=O)NCC2CCCO2)c2ccccc12 (stereo not given) | -0.8 | -0.38
O=S(=O)(c1ccc2nnn(O)c2c1)N1CCCCC1 | 0.3 | ·
CCCn1c(SCC(=O)Nc2ccccc2)n[nH]c1=O | -1.4 | ·
O=c1c(=O)n(Cc2ncc(-c3ccccc3)o2)c2cc(Cl)ccc2n1Cc1ccccc1 | 3.1 | ·
COc1cc(C(F)(F)F)c(C(=O)N(C)Cc2ccccc2Cl)cn1 | · | 1.7
Cc1cccc(N=Cc2c(C)c(C#N)c3[nH]c4ccccc4n3c2=O)c1C | 24 | ·
Nn1c(SCC(=O)Nc2ccccc2Oc2ccccc2)nnc1C1CC1 | -0.1 | ·
COc1ccc(C/C(N)=N/OC(C)=O)cc1OC | -0.4 | -0.017
C=CCn1c(Cc2nc3ccccc3[nH]2)n[nH]c1=S | 1.7 | -0.44
Cc1ccccc1OCCC(=O)NCCc1ccccn1 | 1.1 | ·

Record cards, from the list above.
Entry for Cc1onc(-c2ccccc2Cl)c1C(=O)N(C)C1CCCCC1 : Ab BasE inh: 0.5; LANA-nucl inh: -0.57
Entry for CC(C)C(=O)c1cn(CC(=O)NCC2CCCO2)c2ccccc12 (stereo not given) : Ab BasE inh: -0.8; LANA-nucl inh: -0.38

Other entries follow.
SMILES | Ab BasE inh | LANA-nucl inh
c1ccc(-c2ccc(Oc3cnccn3)cc2)cc1 | 2.1 | ·
O=S(=O)(c1ccccc1C(F)(F)F)N1CCN(S(=O)(=O)c2ccccc2C(F)(F)F)CC1 | -2.0 | -1.3
Cc1cccc(NC(=O)N2CCCC2C(=O)Nc2ccccc2)c1 (stereo not given) | 0.4 | -1.1
CCc1ccc(NC(=S)N(Cc2ccco2)C2CCN(C(C)C)CC2)cc1 | 1.7 | 0.71
CC(C)N1CCc2[nH]c(=S)[nH]c(=O)c2C1 | 1.4 | -0.57
CC(=O)[C@H]1[C@H](C#N)C[C@H]2[C@@H]3CC=C4C[C@@H](O)CC[C@]4(C)[C@H]3CC[C@@]21C | 0.3 | 0.23
CCOC(=O)c1c(NC(=O)CN(CC)CC)sc2c1CCC/C2=N\O | 1.0 | -0.087
CCCn1c(=O)c(C#N)cn(-c2ccccc2C)c1=O | 1.5 | 0.99
Cc1ccc(N2CC(C(=O)OCC(=O)c3ccc[nH]3)CC2=O)cc1 (stereo not given) | -1.5 | ·
Cc1csc(=O)n1CCSc1nnc(-c2cccs2)n1-c1ccccc1 | 2.5 | ·
CC(=O)N1c2ccccc2NC2=C(C(=O)CCC2)C1c1ccc(Cl)cc1 (stereo not given) | 1.0 | ·
Cc1c(C(=O)NC(=S)Nc2ccc(N3CCCCC3)c(Cl)c2)oc2ccccc12 | 0.9 | -0.099
CC(C)CNC(=O)c1ccc(CN2CCOCC2)cc1 | -1.6 | -0.18
COc1cc(-c2nnc(SCC(=O)NC(=O)c3ccc(C(C)(C)C)cc3)o2)cc(OC)c1OC | -0.3 | ·
Fc1ccc(N2CCN(C3C4CC5CC(C4)CC3C5)CC2)cc1 (stereo not given) | -1.4 | -0.93
Cc1ccc(N2CCN(C(=O)c3ccccc3)CC2)c(C)c1 | 1.3 | 0.37
COc1ccc(C(=O)NCc2nnc(SCC(=O)c3ccccc3)n2C)cc1 | -0.9 | 0.11
O=c1c(-c2ccc3c(c2)OCCO3)coc2cc(O)cc(O)c12 | -5.4 | 1.8
CC(c1nnc(SCc2ccc(C#N)cc2)n1-c1ccc(Cl)cc1)N1CCCCC1 (stereo not given) | 0.0 | ·
Cc1ccc(C2=NC(=O)/C(=C/c3cc(O)c(O)c(Br)c3)S2)cc1 | -4.4 | 0.49
CCCc1cc(C(=O)N2CCCCCCC2)cs1 | 3.2 | 1.3
O=C(/C=C/c1ccco1)N(Cc1ccco1)Cc1cccs1 | 1.9 | ·
CC1(C)Oc2ccc(C#N)cc2[C@@H](OC2=CC(=O)CC2)[C@@H]1O | -0.1 | 0.38
O=C(c1ccc(F)cc1)N1CCCCC(Sc2ncnc3sc4c(c23)CCC4)C1=O (stereo not given) | 1.3 | ·
CCOC(=O)c1cc(-c2nnc(-c3ccc(C)cc3)o2)c(C)nc1C | 1.1 | ·

Rewritten as labelled records: four of the compounds above
> CCc1ccc(NC(=S)N(Cc2ccco2)C2CCN(C(C)C)CC2)cc1
  Ab BasE inh: 1.7
  LANA-nucl inh: 0.71

> Fc1ccc(N2CCN(C3C4CC5CC(C4)CC3C5)CC2)cc1 (stereo not given)
  Ab BasE inh: -1.4
  LANA-nucl inh: -0.93

> CC(=O)[C@H]1[C@H](C#N)C[C@H]2[C@@H]3CC=C4C[C@@H](O)CC[C@]4(C)[C@H]3CC[C@@]21C
  Ab BasE inh: 0.3
  LANA-nucl inh: 0.23

> c1ccc(-c2ccc(Oc3cnccn3)cc2)cc1
  Ab BasE inh: 2.1
  LANA-nucl inh: ·

Later entries:
SMILES | Ab BasE inh | LANA-nucl inh
Cc1cc(C)n(CCc2nc3c4ccccc4nc(NCCC(C)C)n3n2)n1 | 0.7 | 0.47
CC(C)(C)/C=N/NC(=O)c1nc(-c2ccc(C(C)(C)C)cc2)no1 | -2.3 | 0.43
O=C1NC2(CCN(C(=O)c3ccc(Cl)cc3)CC2)N=C1c1ccccc1 | 0.5 | -0.89
O=c1ccc(-c2ccc(S(=O)(=O)NCCN3CCCC3)s2)n[nH]1 | -0.5 | 0.61
CN(C)/N=C/c1ccc(P(N2CCOCC2)N2CCOCC2)o1 | -0.1 | ·
CC(=O)Nc1ccc(OC(=O)N2CCCC2)cc1 | 1.1 | -0.96
COC(=O)C(Cc1c[nH]c2ccccc12)NS(C)(=O)=O (stereo not given) | -1.4 | ·
O=C(CCc1ccco1)Nc1ccc(-c2nnc3n2CCCCC3)cc1 | 0.8 | ·
O=C(O)C1CCCN(Cc2ccco2)C1 (stereo not given) | 0.9 | 0.006
CCN(CC)C(=O)CSc1nc2cccnc2n1C | 1.3 | 0.32
Cc1ccc(CNc2nc3ccccc3s2)s1 | 5.2 | -0.034
CCC1=C[C@H]2CN(C1)Cc1c([nH]c3ccccc13)[C@@](C(=O)OC)(c1cc3c(cc1OC)N(C)[C@H]1[C@@](O)(C(=O)OC)[C@H](OC(C)=O)[C@]4(CC)C=CCN5CC[C@]31[C@@H]54)C2 | · | -0.19
Cc1cc(C(=O)COC(=O)[C@@H]2CCCN2C(=O)c2cccs2)c(C)n1-c1ccc2c(c1)OCCO2 | 1.0 | ·
COc1ccc(C(=O)COC(=O)c2cccc(S(N)(=O)=O)c2)cc1 | 0.6 | ·
CC(C)(C)c1ccc(-c2nn3cnnc3s2)cc1 | -5.1 | 3
Cc1ccc[n+](Cc2cnc(C)nc2N)c1 | -1.3 | -0.19
CCn1nnc2c(Nc3cccc(C)c3)ncnc21 | -0.7 | -0.074
OC1(C(F)(F)F)CC(c2ccc(F)cc2)=NO1 (stereo not given) | 2.5 | ·
CCn1c(C)cc(O)c(C(c2cccc(OC)c2)N2CCN(c3ccccn3)CC2)c1=O (stereo not given) | 1.2 | 0.69
Cc1ccc2nc3n(c(=O)c2c1)CCCc1nn(-c2nc4ccccc4s2)c(N)c1-3 | -2.6 | ·
CC(C)C(NS(=O)(=O)c1ccc2c(c1)OCCO2)C(=O)OCN1C(=O)c2ccccc2C1=O (stereo not given) | 0.5 | ·
COc1ccc(N(Cc2coc(-c3ccccc3)n2)S(=O)(=O)c2ccccc2)cc1 | 3.0 | ·
CN(C)C(CNC(=O)c1cncc(Br)c1)c1cccs1 (stereo not given) | 2.8 | ·
C[C@@]12CCC(=O)[C@]1(C)CCC2=O | 2.9 | -0.071
NC(=O)COC(=O)c1ccc(S(=O)(=O)Nc2ccccc2)cc1 | -0.7 | ·

3 compounds from above, sorted by the number in LANA-nucl inh, descending:
SMILES	LANA-nucl inh
Cc1ccc(CNc2nc3ccccc3s2)s1	-0.034
Cc1ccc[n+](Cc2cnc(C)nc2N)c1	-0.19
CC(=O)Nc1ccc(OC(=O)N2CCCC2)cc1	-0.96

Remaining list, next part.
SMILES | Ab BasE inh | LANA-nucl inh
Cn1cccc1C=NN1CCN(Cc2ccccc2)CC1 | 0.8 | -0.34
CCc1cccc2c(=O)c(C(=O)N3CCCC3)c[nH]c12 | 2.4 | 0.25
CC(Sc1ccc(Cl)cc1)C(=O)NN=C1CCN(C)CC1 (stereo not given) | 1.4 | -0.71
Cc1nn(Cc2ccc(C(=O)Nc3cc(Cl)cc(Cl)c3)o2)c(C)c1Br | 4.1 | -0.84
Cc1ccc(-c2cn3ccccc3n2)cc1 | -2.0 | ·
CCn1c2ccccc2c2nnc(NCCCN3CCN(c4cccc(Cl)c4)CC3)nc21 | 0.1 | 0.52
CC(CC(=O)NCc1cccnc1)c1ccccc1 (stereo not given) | 1.2 | -0.49
CSc1ccc(S(=O)(=O)Nc2ccccc2)cc1 | 0.8 | 1.7
O=C(CSc1nc2ccccc2c(=O)n1C1CCCC1)Nc1ccc2c(c1)OCCO2 | 1.4 | ·
CC(C)N(CCC#N)C(=O)Nc1ccc2c(c1)CCO2 | 2.8 | -1.6
Cc1ccccc1CN1CCNC(=O)C1CC(=O)O (stereo not given) | 3.3 | 0.54
COc1ccc(-c2nn(-c3ccccc3)cc2C(=O)Nc2ccc3[nH]c(=O)[nH]c3c2)cc1 | 1.8 | ·
COC(=O)c1cccc(C(=O)Nc2ccc(F)cc2)n1 | 1.3 | ·
CCn1c(SCCN2CCCC2)nnc1C1CCCN(S(C)(=O)=O)C1 (stereo not given) | 0.5 | -0.63
Nn1c2ccccc2c2ccccc21 | 2.3 | -0.52
O=C(Nc1ccccc1)N1CCC(C(=O)N2CCc3ccccc3C2)CC1 | -0.2 | ·
Cc1ccc(C)c(C(=O)OCC(=O)C(C)(C)C)c1 | -1.4 | ·
COC(=O)c1cc(C23CC4CC(CC(C4)C2)C3)oc1C | 0.7 | -1.4
Cc1nc(-c2nnc(-c3ccccc3)o2)c(C(F)(F)F)o1 | -1.6 | ·
COc1ccc(Nc2cnc(=O)nc3ccccc23)cc1 | -0.4 | 0.65
CCOC(=O)c1[nH]c(=O)[nH]c1CSCCO | -0.4 | -0.11
O=C(NCC(F)(F)F)c1ccc2c(c1)OCO2 | -0.4 | ·
Cc1nc2ncnn2c(C)c1Cc1c(Cl)cccc1Cl | · | 0.49
C=CCN(CC=C)C(=O)c1cc(-c2ccccc2)nc2ccccc12 | -2.1 | ·
COc1ccc(C(=O)N2c3ccccc3CC2C)cc1 (stereo not given) | -2.2 | 2.7
SMILES | Ab BasE inh | LANA-nucl inh
CCOC(=O)/C(=C\c1cc(Br)c(O)c(OC)c1)C1=Nn2c(C)nnc2SC1 | -0.4 | ·
COc1ccc(S(=O)(=O)N2CCCC(C(=O)NCCN3CCOCC3)C2)cc1C (stereo not given) | -0.8 | 0.41
CCn1c(-c2ccc(C)cc2)cs/c1=N\N=C/c1ccc(O)c(OC)c1 | 4.8 | -0.25
CC(C)(C)C(=O)Nc1ccccc1C(=O)NCc1cccnc1 | 1.2 | ·
CCC(C)c1ccccc1NC(=O)c1ccc(=O)n(C)n1 (stereo not given) | 0.6 | ·
CCOc1ccc(NC(=O)CN2C3CCC2CC(=O)NC3)cc1 (stereo not given) | -0.1 | 0.42
NNCc1c(Cl)cccc1Cl | -0.6 | 0.86
O=C(/C=C/c1ccccc1)N1CCN(CCN2C(=O)C3C4C=CC(C4)C3C2=O)CC1 (stereo not given) | 2.3 | 0.3
O=C(OCc1nnc(-c2ccccc2)o1)c1cccc(S(=O)(=O)N2CCCC2)c1 | 0.3 | ·
Cc1ccccc1Nc1nc(N)nc(CN2C(=O)CS/C2=C\C(=O)C(C)(C)C)n1 | -2.6 | ·
Cc1nc(Nc2nc3ccccc3o2)[nH]c(=O)c1C | 1.4 | 1.2
Cc1nc(=O)c(-c2ccccc2)c(C)n1CCN1CCCCC1 | 0.8 | ·
O=C(Cn1ncc2c([nH]c3ccccc32)c1=O)Nc1ccc(Cl)cn1 | 1.4 | 0.58
Cc1noc(C)c1CSc1nc2ccccc2c(=O)n1CC1CCCO1 (stereo not given) | 2.3 | ·
CC(C)Cc1nnc(NC(=O)c2ccccc2)s1 | -0.5 | -0.48
N#Cc1ccc(NC(=O)CC2(CC(=O)O)CCCCC2)cc1 | 3.5 | ·

An excerpt, so the mix of outcomes need not match the whole.
